# KCNQ2 pot = potentiators of rat KCNQ2 potassium channel; B-score at 10 µM; 310,000 compounds, 0.54% hits; Potassium voltage-gated channel subfamily KQT member 2 (Rattus norvegicus), O88943; CHO-K1 KCNQ2, FluxOR thallium flux fluorescence; stronger effect = higher value;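 active = fluorescence ratio B-score at least 3 SD of library B-scores, with initial fluorescence B-score within 3 SD, cut at about 5.3 in these data; same plate scores as AID 2156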;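 note: B-score of peak minus minimum over baseline fluorescence ratio after K+ and Tl+ stimulus; positive B-score means potentiation of KCNQ2 with more thallium influx and brighter signal; only the inactives scoring about 0 or higher are listed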
# Target sequence (O88943 whole entry, looked up): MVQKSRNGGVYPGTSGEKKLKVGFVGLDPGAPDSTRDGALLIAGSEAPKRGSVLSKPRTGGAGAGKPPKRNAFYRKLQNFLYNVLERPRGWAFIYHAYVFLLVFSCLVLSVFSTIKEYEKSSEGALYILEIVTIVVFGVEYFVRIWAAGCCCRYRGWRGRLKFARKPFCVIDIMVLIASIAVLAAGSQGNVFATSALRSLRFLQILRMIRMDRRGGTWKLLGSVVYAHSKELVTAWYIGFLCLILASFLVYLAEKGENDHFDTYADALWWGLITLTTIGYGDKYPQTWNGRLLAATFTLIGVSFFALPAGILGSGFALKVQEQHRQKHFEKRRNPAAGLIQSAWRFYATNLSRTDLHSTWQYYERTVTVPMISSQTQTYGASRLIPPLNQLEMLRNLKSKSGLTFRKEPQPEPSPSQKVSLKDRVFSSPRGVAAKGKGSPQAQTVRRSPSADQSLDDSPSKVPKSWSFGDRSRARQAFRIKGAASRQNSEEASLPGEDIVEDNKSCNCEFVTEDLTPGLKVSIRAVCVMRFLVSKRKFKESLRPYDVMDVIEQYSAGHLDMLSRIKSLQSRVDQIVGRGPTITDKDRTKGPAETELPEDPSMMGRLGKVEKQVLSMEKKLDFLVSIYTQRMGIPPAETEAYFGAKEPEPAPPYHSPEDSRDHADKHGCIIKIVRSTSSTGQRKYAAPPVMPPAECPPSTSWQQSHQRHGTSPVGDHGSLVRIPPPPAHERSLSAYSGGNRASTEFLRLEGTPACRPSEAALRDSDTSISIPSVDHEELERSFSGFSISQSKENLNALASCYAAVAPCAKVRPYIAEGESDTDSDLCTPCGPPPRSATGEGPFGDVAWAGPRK
# KCNQ2 pot baseline = recorded beside KCNQ2 pot, whose call it bears; B-score; compound at 10 µM; measured here: initial fluorescence intensity artifact check;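 brightness before thallium and not channel activity; 0 = typical well and far values either way flag optical interference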
# * marks the source's active call; other numbers are inactive results; · = no result given; & = joins results of further samples.
# A first look, three compounds:
KCNQ2 pot	KCNQ2 pot baseline	Molecule
0.41	-1.5	CC(Cc1ccccc1)C(=O)Nc1ccc(Br)cc1 (centres undefined)
0.66	0.46	CC(C)NC(=O)[C@H]1N2C(=O)c3ccccc3C2SC1(C)C (some centres undefined)
1.2	-0.99	Cn1c(SCC(=O)N2CCCCC2)nc2c([nH]c3ccccc32)c1=O

# This part in full, from the start:
KCNQ2 pot	KCNQ2 pot baseline	Molecule
0.41	-1.5	CC(Cc1ccccc1)C(=O)Nc1ccc(Br)cc1 (centres undefined)
0.66	0.46	CC(C)NC(=O)[C@H]1N2C(=O)c3ccccc3C2SC1(C)C (some centres undefined)
1.2	-0.99	Cn1c(SCC(=O)N2CCCCC2)nc2c([nH]c3ccccc32)c1=O
0.54	-0.05	CCOc1ccc(-c2nc(-c3ccccc3)no2)cc1OCC
0.93	-1.3	NC(=O)Nc1cccc2ccccc12
1.2	-1.1	Cc1cc(C)n2cc(CSc3nc4cc(Cl)ccc4o3)nc2n1
0.07	-0.53	Cc1ccc(S(=O)(=O)N2CCN(C(=O)CC(C)C)CC2)cc1
0.5	-0.32	CCOC(=O)c1cccc(NC(=O)c2c(N)n(C)c(=O)[nH]c2=O)c1
1.2	1.4	CC(C)(C)/C(O)=C(/C#N)c1nc2ccccc2[nH]1
1.7	-1.1	CCNC(=O)c1ccc(NC(=O)CC2SC(N3CCCC3)=NC2=O)cc1 (centres undefined)
0.95	-0.06	Brc1ccc(-c2csc3ncnc(-n4nnc5ccccc54)c23)cc1
1.8	-0.21	O=C(NCCCNC(=O)c1c(Cl)cccc1Cl)c1c(Cl)cccc1Cl
0.01&0.12	·	COCCCC/C(=N\OCCN)c1ccc(C(F)(F)F)cc1
0.89	0.88	COC(=O)c1nn(Cc2ccccc2)c(=O)c2ccccc12
3.4	-0.78	O=c1oc2ccccc2c(Nc2cccc3ccccc23)c1[N+](=O)[O-]

# Exported as labelled records: four of the compounds above.
> Cc1cc(C)n2cc(CSc3nc4cc(Cl)ccc4o3)nc2n1
  KCNQ2 pot: 1.2
  KCNQ2 pot baseline: -1.1
> Cc1ccc(S(=O)(=O)N2CCN(C(=O)CC(C)C)CC2)cc1
  KCNQ2 pot: 0.07
  KCNQ2 pot baseline: -0.53
> CCOC(=O)c1cccc(NC(=O)c2c(N)n(C)c(=O)[nH]c2=O)c1
  KCNQ2 pot: 0.5
  KCNQ2 pot baseline: -0.32
> CC(C)(C)/C(O)=C(/C#N)c1nc2ccccc2[nH]1
  KCNQ2 pot: 1.2
  KCNQ2 pot baseline: 1.4

# Following part.
KCNQ2 pot	KCNQ2 pot baseline	Molecule
0.38	-1.8	CCOC(=O)c1cnn(-c2ccc([N+](=O)[O-])cc2)c1N
0.04	0.11	C=CCNC(=O)c1ccc2c(=O)n(Cc3ccccc3OC)c(=S)[nH]c2c1
0.03	0.76	CCCNC(=O)CCCN1C(=O)c2ccccc2Sc2ncccc21
3	0.01	O=C(O)c1cc([N+](=O)[O-])c(NCCC2=CCCCC2)c([N+](=O)[O-])c1
0.41	0.14	O=C(Nc1ccccc1-c1ccccc1NC(=O)c1ccco1)c1ccco1
0.5	-0.28	Oc1ccc2ccccc2c1C=Nc1cc(C(F)(F)F)ccc1N1CCCC1
1.2	-2.5	CCOc1ccc(NC(=O)c2ccc(NS(=O)(=O)c3cccs3)cc2)cc1
0.84	-0.02	Cc1ccc(NC(=O)C(C)SCc2nc3sc(C)c(C)c3c(=O)[nH]2)nc1 (centres undefined)
0.25	0.2	Cc1n[nH]c(=O)nc1N1CCN(c2ccccc2)CC1
0.36	-0.43	CCCCN1CC[C@H]2C=CC[C@@H](C(=O)N3CCN(c4ccccc4)CC3)[C@H]2C1=O
0.17	-1.2	COc1ccccc1OCc1ccc(C(=O)NCC2CCCO2)o1 (centres undefined)
1.8	-0.6	CCn1c2ccccc2c2cc(NC(=O)COc3ccc(OC)cc3)ccc21
0.37	-0.97	CCc1ccc(CN(C)C(=O)C2CCC(=O)N(Cc3cccc(OC)c3)C2)nc1 (centres undefined)
0.76	0.98	O=C(NCCCN1CCOCC1)C(=O)NCC1CCCO1 (centres undefined)
2.7	-1.2	Cc1oc(-c2ccc(Cl)cc2)cc1C(=O)/C(C#N)=C/Nc1ccccc1
0.69	-0.78	O=C(COC(=O)c1ccc(Cl)nc1)NCc1cccs1
1.2	0.8	Cc1cc(C(=O)NNC(=O)CCCOc2ccccc2)c(C)o1
0.21	-0.2	COC(=O)Cn1c(O)c(N=NC(=O)c2ccc3c(c2)OCO3)c2ccccc21
0.69	-0.48	COc1ccc(C(=O)c2c3ccccc3[n+]([O-])n2CCC(N)=O)cc1
3.1	-0.87	Cc1ccc(/C=N/NC(=O)CN2CCN(Cc3ccccc3)CC2)o1
1.5	-1.9	Cc1ccc2cccc(Oc3ncnc4scc(-c5ccc(Cl)cc5)c34)c2n1
0.25	-1.4	O=S(=O)(Nc1cc(Cl)cc(Cl)c1)N1CCOCC1
2.1	-0.56	O=C(CN1C(=O)C2C3C=CC(C3)C2C1=O)Nc1cccc(S(=O)(=O)N2CCCC2)c1 (centres undefined)
0.21	-0.02	CCc1ccccc1C1C(=O)c2ccccc2C1=O
2	-0.49	Cc1ccccc1NC(=O)Cc1nnc(SCC(=O)N2CCN(c3ccccc3)CC2)n1C
2.8	0.31	COc1ccc(OC)c2[nH]c(=O)c(CCNC(=O)c3ccc(S(=O)(=O)N4CCCC4)cc3)cc12
0.06	-0.22	Cc1ccccc1NCCC(=O)Nc1ccc(Cl)cc1
0.02	-0.25	CCN1CCN(C(=O)CS(=O)(=O)Cc2nc(-c3ccccc3C)oc2C)CC1
0.48	1.4	O=C(COC(=O)/C=C/c1ccc(Cl)cc1Cl)NCc1ccco1
1.2	-0.03	CC(=O)Cc1nsc(NC(=O)c2ccc(COc3ccccc3C)o2)n1
0.08	1.1	COc1ccc(Cc2nc3ccccc3[nH]c2=O)cc1
0.05	0.3	CCOc1ccccc1NC(=O)/C=C/c1ccccc1[N+](=O)[O-]
0.02	-0.81	CCOC(=O)c1nnn(-c2nonc2N)c1CSc1ccccn1
0.02	0	Cc1ccc(N(CC(=O)NC2CCCCC2)S(=O)(=O)c2cccs2)cc1
0.03	0.02	CCN(CC)S(=O)(=O)c1ccc(C)c(NC(=O)CSc2ncc(C(F)(F)F)cc2Cl)c1
0.83	-1.1	CCNC(=S)Nc1ccc(Cl)c(C(F)(F)F)c1
0.78	-0.11	O=C(CN1C(=O)C2CCCCC2C1=O)Nc1ccccc1C(=O)O (centres undefined)
0.51	0.05	CCCCN(CCCC)C(=O)c1cc2ccccc2c(=O)o1
1.6	2.2	NC(=O)c1ccccc1NS(=O)(=O)c1ccccc1
0.43	-2.7	COCc1c(N)c(C)nc(Cl)c1C#N
1.7	0.12	CN(C(=O)COC(=O)c1cc([N+](=O)[O-])ccc1N1CCCC1)C1CCS(=O)(=O)C1 (centres undefined)
1.9	0.03	CC(C)CNC(=S)Nc1ccc(Oc2ccccc2)cc1
0.75	-1.4	CCOC(=O)C1CCCN(C(=O)c2ccc3c(=O)n(Cc4ccccc4OC)c(=S)[nH]c3c2)C1 (centres undefined)
0.99	-0.47	COc1ccc(N(C(C)C(=O)Nc2cccnc2)S(C)(=O)=O)cc1 (centres undefined)
0.64	0.03	CC(C)CNC(=O)CCCc1c[nH]c2ccccc12
0.4	-0.17	CCCCNC(=S)Nc1ccc(SC(F)F)cc1
1	-1.5	O=C(N/N=C/c1cc2c(cc1[N+](=O)[O-])OCO2)c1ccc2c(c1)OCO2
0.27	-0.08	O=C1C(Nc2ccccc2)=C(NS(=O)(=O)c2ccccc2)C(=O)c2ccccc21
0.68	0.52	COC(=O)Sc1nnc(-c2ccc(Br)cc2)o1
3.9	-0.61	COc1cc(/C=C2/C(=N)N3C(=NC2=O)SN=C3S(C)(=O)=O)ccc1OS(=O)(=O)c1ccccc1
0.3	0.06	COc1ccc(CCNc2nc(-c3ccc(NC(C)=O)cc3)cs2)cc1OC
0.26	-0.42	COc1ccc(Br)cc1S(=O)(=O)Nc1ncn[nH]1
1.5	0.19	COc1ccc(-c2ccc(SCC(=O)N3CCCC3)nn2)cc1OC
1.8	0.86	COC(=O)c1ccc2c(=O)n(CCN3CCOCC3)c(=S)[nH]c2c1
0.17	-0.85	O=C1CC(c2ccc3c(c2)OCO3)CN1 (centres undefined)
0.05	-0.19	COc1ccccc1OCC(=O)N/N=C/C=C/c1ccc([N+](=O)[O-])o1
0.97	-0.3	CC(C)(C)OC(=O)NCCCCCc1nnc(SCc2ccccc2F)o1
0.01	-1.3	CCc1ccc(NC(=O)Cn2cnc3sc(C)c(S(=O)(=O)N4CCOCC4)c3c2=O)cc1
1	0.49	COC(=O)c1cc(C)sc1NC(=O)CN1CCN(C(=O)C2CCCO2)CC1 (centres undefined)
0.6	-0.09	Cc1ccc2cc(C)c3nnc(SCC(=O)N4CCN(C(=O)c5ccco5)CC4)n3c2c1

# Some values from the entries so far.
# For KCNQ2 pot baseline, CCCCNC(=S)Nc1ccc(SC(F)F)cc1 is entered as -0.17
# For KCNQ2 pot, COC(=O)c1ccc2c(=O)n(CCN3CCOCC3)c(=S)[nH]c2c1 is entered as 1.8

# Among those listed so far, two have a COOH group:
KCNQ2 pot	KCNQ2 pot baseline	Molecule
3	0.01	O=C(O)c1cc([N+](=O)[O-])c(NCCC2=CCCCC2)c([N+](=O)[O-])c1
0.78	-0.11	O=C(CN1C(=O)C2CCCCC2C1=O)Nc1ccccc1C(=O)O (centres undefined)

# The results go on.
KCNQ2 pot	KCNQ2 pot baseline	Molecule
0.01	-0.13	CCC(C)NC(=O)c1ccc(COc2ccccc2Cl)cc1 (centres undefined)
1	-0.37	O=C1NC2(CCCCC2)Cc2ccccc21
0.39	-1.3	O=C(CCN1c2ccccc2Sc2ccccc21)OCC(=O)N1CCN(C(=O)c2ccco2)CC1
1.9	-0.24	COc1ccc(C(=O)NCCC2=CCCCC2)cc1S(=O)(=O)N1CCOCC1
1.9	-0.8	COc1cccc(C(=O)Nc2ccc(NC(=O)c3cc4ccccc4o3)c(OC)c2)c1
0.78	-0.9	C/C(CC(=O)NCc1ccc(Cl)cc1)=N\NC(=O)Cc1ccccc1
0.03	0.49	COc1cc(Cl)ccc1OCc1cc(C(=O)NC(C)Cc2cccnc2)no1 (centres undefined)
0.02	-3.1	COc1cc(CNn2cnnc2)ccc1OCC(=O)NC1CCCCC1
0.64	0.19	CCn1c2c(c(C)cc1=O)C(=O)CC(C)(C)C2
0.97	-0.17	COC(=O)c1ccccc1NC(=O)CCS(=O)(=O)c1ccc(Br)s1
0.88	-0.81	CCCN1Cc2cccc(C(=O)NCCCOC(C)C)c2C1=O
0.28	-1.3	Cc1ccc(N2C(=O)[C@@H]3C(c4ccc(F)cc4)=NO[C@@H]3C2=O)cc1
0.05	1.8	Cc1ccc(Cn2cc(SCC(N)=O)c3ccccc32)cc1
0.03	0.76	O=C(C1CCCN(S(=O)(=O)c2ccc(Br)cc2)C1)N1CCOCC1 (centres undefined)
0.72	1.3	CCN(CC)CCNC(=O)c1ccc(NC(=O)c2c(F)cccc2Cl)cc1
0.19	-1.3	COC(=O)C1=C(C)N(C)C(=O)NC1c1ccc(O)c(Cl)c1 (centres undefined)
0.32	-0.23	CN(C)C(=O)N1CCCC(C(=O)NCc2ccccc2)C1 (centres undefined)
0.78	0.05	CCS(=O)(=O)N1CCN(C(=O)c2ccc(-c3ccccc3)cc2)CC1
0.22	-0.1	CNC(=O)OCCSCCS(=O)(=O)c1ccc(Cl)cc1
0.72	-1.2	COc1ccc(OC)c(CN2CCCCCC2)c1
1.7	-0.67	CCn1c(CCC(=O)Nc2ccccc2F)nnc1SCC(=O)Nc1ccc(OC)cc1
0.05	-0.11	CN(CC(=O)Nc1ccc(F)c(F)c1F)c1ncnc2sccc12
0.16	0.22	CCOC(=O)C1=C(c2ccccc2)NC(SCC(=O)Nc2cccc(C)c2)=C(C#N)C1c1ccco1 (centres undefined)
0.05	-0.79	Cc1ccc(OCC(=O)Nc2ccc(S(=O)(=O)Nc3cc(C)nc(C)n3)cc2)c(C)c1
1.1	0.03	CC(=O)c1cccc(NC(=O)c2ccc3c(c2)OCO3)c1
0.43	-3.3	CN(c1ccccc1C(=O)NCc1ccccn1)S(C)(=O)=O
0.86	0.8	COc1ccc(NC2=CC(=O)CC(C)(C)C2)cc1OC
0.92	0.3	Cc1[nH]c(-c2ccc3c(c2)OCO3)nc1C(=O)O
0.93	-0.62	CC(=O)c1cc(C#N)c(Oc2ccccc2)nc1C
1.1	-0.23	Cc1ccc(S(=O)(=O)c2cn(Cc3ccc(F)cc3)c3cc4c(cc3c2=O)OCO4)cc1
2.2	-0.22	Cc1ccc(C(=O)N(CC#N)CC#N)cc1C
0.09	1	CC(Cc1c[nH]c2ccccc12)NC(=O)C1CCCNC1=O (centres undefined)
2.2	0.46	OCCCNC(=S)Nc1ccc(Oc2ccccc2)cc1
0.54	0.55	O=C(O)CCN1C(=O)NC2(CCCC2)C1=O
0.25	-1.3	Cn1c(C(=O)NC2CC2)cc(=O)n(C)c1=O
0.33	1	Cc1c(NC(=O)c2ccc(-c3cccc([N+](=O)[O-])c3)o2)c(=O)n(-c2ccccc2)n1C
0.88	-0.01	CC(=O)Oc1ccc2nc(-c3cccs3)oc(=O)c2c1
0.56	-0.35	c1ccc2c(N3CCCCC3)ncnc2c1
0.45	-0.16	Cc1nn(C)c(C)c1S(=O)(=O)N1CCC(C(=O)NC2CCCCCC2)CC1
0.01	1.1	COc1ccc(CCNC(=O)c2nnn(-c3ccc4c(c3)OCCO4)c2N)cc1OC
0.28	-2.1	COc1ccc(Nc2nc(OC)nc(OC)n2)cc1
0.01	0.9	Cc1nc2ccccc2c2ncccc12
1.7	0.86	COCCNC(=O)CN(CC1CCCO1)C(=O)CCC(=O)Nc1ccccn1 (centres undefined)
0.94	0.39	CC(=O)NNC(=O)CN1C(=O)/C(=C/c2ccccc2)SC1=S

# High-throughput results: PubChem BioAssay, Johns Hopkins Ion Channel Center

# These rows are one share of the data; count on the stated rates, not on these rows.
